Compound activity from PubChem BioAssay.
Mtb growth – Mycobacterium tuberculosis H37Rv growth inhibition, putative kinase inhibitor library, confirmatory dose response (AID 2842) | 5.2% of 24,000 active | M. tuberculosis H37Rv growth inhibition; higher % means a stronger effect; some inactives read as strong as hits | one-dose inhibition, % at 10 µg/mL; IC90 in µg/mL for titrated hits;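 active = confirmed in a dose series; about a fifth of its hits are not listed in these tables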;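 note: bacteria incubated one week before Alamar blue readout; 0% = bacteria only wells and 100% = bacteria with high antibiotic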
Starred values were filed as active, the others as inactive.

item	Structure	Mtb growth
1	N#Cc1c(NC(=O)c2ccccc2Br)sc2c1CCC2	6%
2	CCOc1ccccc1C1C(C#N)=C(N)Oc2n[nH]c(-c3ccccc3)c21 (configuration not stated)	40%
3	Nc1nc(NCCOCCO)nc(Nc2cccc(F)c2)c1[N+](=O)[O-]	-12%
4	CNC(=O)c1ccsc1NC(=O)c1ccc(S(=O)(=O)N2CC(C)CC(C)C2)cc1 (configuration not stated)	0%
5	Cc1ccnc(SCCn2c(N3CCCC3)nc3c2c(=O)n(C)c(=O)n3C)n1	10%
6	CNC(=O)NC1CC(=O)N(c2ccc(OC)cc2)C1 (configuration not stated)	-3%
7	COc1ccc(NC(=O)CSc2nc(N)c(NC(=O)c3ccccc3F)c(=O)[nH]2)cc1	-1%
8	O=[N+]([O-])c1ccccc1/C=N/Nc1ncnc2nc[nH]c12	8%
9	O=C1CC(NS(=O)(=O)c2cc(F)ccc2F)CN1c1ccc2c(c1)OCCO2 (configuration not stated)	8%
10	COc1ccc(NC(=O)c2oc3ccccc3c2NC(=O)C(C)(C)C)cc1OC	83%
11	Cc1[nH]c2c(C)c(Cl)ccc2c(=O)c1CN(C)Cc1ccccc1	3%
12	CCOC(=O)c1nn(-c2ccc(C)cc2)c(=O)c2c(NC(=O)c3ccc(OC)c(OC)c3)scc12	2%
13	COc1ccc(-n2nnnc2-c2nc3ccccc3s2)cc1	21%
14	C/C=C/Cn1c(Sc2nc3ccccc3s2)nc2c1c(=O)[nH]c(=O)n2C	11%
15	O=C1N(c2ccc(F)cc2)C2CS(=O)(=O)CC2N1c1cccc([N+](=O)[O-])c1 (configuration not stated)	-9%

The list goes on.
item	Structure	Mtb growth
16	O=C(Nc1ccc(S(=O)(=O)Nc2nccs2)cc1)c1ccccc1Oc1ccccc1	0%
17	CC(=O)Nc1ccc(NC(=O)c2c[nH]c(=O)n(-c3ccc(F)c(Cl)c3)c2=O)cc1	38%
18	CC1=C(C(=O)Nc2ccccc2C)C(c2ccc(O)cc2)n2nc(CCCO)nc2N1 (configuration not stated)	-7%
19	COc1ccc(F)cc1S(=O)(=O)Nc1cc2c3c(c1)C(C)C(=O)N3CCC2 (configuration not stated)	2%
20	CC1(C)Cc2c(sc(NC(=O)CN3C(=O)CCC3=O)c2C(N)=O)C(C)(C)N1	0%
21	CS(=O)(=O)c1ccc([N+](=O)[O-])c(NCCCC(=O)O)c1	-6%
22	COC(=O)c1sc2ccccc2c1NC(=O)c1ccc(C(=O)c2ccccc2)cc1	-9%
23	CN(CCC#N)c1ccc(C=C2C(=O)NC(=S)NC2=O)cc1	6%
24	CC(C)CCNC(=O)c1c(O)nc2sccn2c1=O	13µg/mL*
25	O=C(CSc1nnc(-c2ccncc2)o1)Nc1ccc(Br)cc1	-9%
26	CCc1ccc(-n2c(-c3ccccc3)cn3c4c(=O)n(C(C)C(C)=O)c(=O)n(C)c4nc23)cc1 (configuration not stated)	3%
27	CC1=CC(=Nc2c(C)n(C)n(-c3ccccc3)c2=O)c2ccccc2C1=O	3%
28	O=C(CCSc1ccccc1)Nc1nc(-c2cccnc2)cs1	-4%
29	NS(=O)(=O)c1ccc(NC(=O)c2sc3ccccc3c2Cl)cc1	-3%
30	CCc1ccc(S(=O)(=O)c2cn(Cc3ccccc3Cl)c3ccc(OC)cc3c2=O)cc1	0%

From no. 1 up to 3, as listed above:
item	Structure	Mtb growth
1	N#Cc1c(NC(=O)c2ccccc2Br)sc2c1CCC2	6%
2	CCOc1ccccc1C1C(C#N)=C(N)Oc2n[nH]c(-c3ccccc3)c21 (configuration not stated)	40%
3	Nc1nc(NCCOCCO)nc(Nc2cccc(F)c2)c1[N+](=O)[O-]	-12%

Remaining list, next part.
item	Structure	Mtb growth
31	Cc1ccc(S(=O)(=O)CCC(=O)Nc2ccc(S(N)(=O)=O)cc2)cc1	-9%
32	CCSc1nc2c(c(=O)[nH]c(=O)n2C)n1CC(O)COc1ccccc1C (configuration not stated)	16%
33	Cc1cc(=O)[nH]c2ccc(S(=O)(=O)N3CCCCC3)cc12	3%
34	COc1ccc(OC)c(NC(=O)c2oc3ccccc3c2NC(=O)c2cc(Cl)ccc2Cl)c1	-8%
35	CCOc1ccc(-c2nnc3c4ccccc4n(Cc4cccc(C)c4)cc2-3)cc1	84%
36	COC(=O)c1c(NC(=O)c2ccc3c(c2)CCCC3)sc2c1CC(C)(C)NC2(C)C	8%
37	Cc1cc(=O)oc2cc(OC(C)C(=O)Nc3cccc(C(F)(F)F)c3)ccc12 (configuration not stated)	1%
38	Oc1c(C(c2cccs2)N2CCC3(CC2)OCCO3)sc2ncnn12 (configuration not stated)	-5%
39	CC(=O)c1ccc(NC(=O)CSc2nnc(-c3ccncc3)n2N)cc1	-2%
40	COc1ccc(OC)c(-c2nnc(NC(=O)C(C)Sc3ccccc3)s2)c1 (configuration not stated)	-1%
41	CN1C(=O)CCc2cc(NS(C)(=O)=O)ccc21	-6%
42	O=c1[nH]c(-c2ccc(Cl)cc2Cl)nc2ccccc12	-9%
43	CCOC(=O)c1nn(-c2ccc(Cl)cc2)c(=O)c2c(NC(=O)c3ccc(OC)cc3OC)scc12	-4%
44	CCOc1ccc(-c2nnc3c4cc(OC)ccc4n(Cc4ccc(OC)cc4)cc2-3)cc1	-5%
45	Cc1ccc(NC(=O)C(=O)Nc2cc3c4c(c2)CCC(=O)N4CCC3)c(C)c1	1%

More structures.
item	Structure	Mtb growth
46	Cc1ccccc1OCC(O)Cn1c(SC(C)C)nc2c1c(=O)[nH]c(=O)n2C (configuration not stated)	21%
47	O=C(COc1ccc(F)cc1)Oc1coc(CSc2ncccn2)cc1=O	-10%
48	Cc1ccc2cc(CCNC(=O)c3cccc(Cl)c3)c(=O)[nH]c2c1	-14%
49	CCS(=O)(=O)c1cccc(C(=O)Nc2nc3ccc(C(C)C)cc3s2)c1	11µg/mL*
50	Cc1cc(NC(=O)CC(C)C)nc2c1c(=O)oc1ccccc12	3%
51	COc1ccc(NC(=O)c2sc3nc(-c4ccccc4)cc(C(F)(F)F)c3c2N)cc1	1%
52	Cc1ccc(CNc2nc3c(c(=O)[nH]c(=O)n3C)n2Cc2cccc(C)c2)cc1	22%
53	CC(C)Oc1ccc(C(=O)Nc2c(C(=O)Nc3ccc4c(c3)OCO4)oc3ccccc23)cc1	25%
54	CC1CC(C)CN(S(=O)(=O)c2ccc(C(=O)NNc3nc4c(Cl)cccc4s3)cc2)C1 (configuration not stated)	43%
55	O=C(Nc1nnc(C2=COCCO2)o1)c1cc(Cl)sc1Cl	34µg/mL*
56	COc1ccc(N2CC(NC(=O)Nc3cccc(Cl)c3Cl)CC2=O)cc1OC (configuration not stated)	15%
57	CCOC(=O)c1nn(-c2ccc(F)cc2)c(=O)c2c(NC(=O)Cc3cccc4ccccc34)scc12	12%
58	Cc1ccc(C2C(C(=O)c3cccs3)=C(O)C(=O)N2c2nncs2)cc1 (configuration not stated)	1%
59	O=C(CC1CCS(=O)(=O)C1)NC1CCCCC1 (configuration not stated)	-13%
60	CC(=O)c1ccc2[nH]c(C)c(CN3CCOCC3)c(=O)c2c1	-1%

Following part
item	Structure	Mtb growth
61	O=C1CC(NS(=O)(=O)c2ccc(Cl)cc2)CN1c1ccc2c(c1)OCCO2 (configuration not stated)	1%
62	COc1ccc(NC(=O)c2oc3ccccc3c2NC(=O)CC2CCCCC2)cc1OC	6%
63	O=C(O)CCNS(=O)(=O)c1ccc2c(c1)C(=O)c1cc(S(=O)(=O)NCCC(=O)O)ccc1-2	-19%
64	O=C(Nc1nc(-c2ccc3c(c2)OCCO3)cs1)c1ccc(Cl)s1	53%
65	Cc1ccc(NC(=O)CSc2nc(N)c(NC(=O)c3cccs3)c(=O)[nH]2)c(C)c1	-6%
66	N#Cc1c(NC(=O)c2ccc(S(=O)(=O)N3CCCCC3)cc2)sc2c1CCCC2	-7%
67	Cc1cc(=O)[nH]c(SCC(=O)Nc2ccc3c(c2)C(=O)c2ccccc2C3=O)n1	-4%
68	CN(C1CCCCC1)S(=O)(=O)c1ccc(C(=O)Nc2ccccc2F)cc1	-7%
69	CC1Cc2cc(-c3nn(-c4ccccc4)cc3/C=C3\SC(=S)NC3=O)ccc2O1 (configuration not stated)	1.8µg/mL*
70	Cc1ccc(N2C(=O)C3N=NN(CC(=O)Nc4c(C)cccc4C)C3C2=O)cc1C (configuration not stated)	-13%
71	CC(Sc1ccc(Cl)cc1)C(=O)Nc1nnc(C(C)C)s1 (configuration not stated)	12%
72	Cc1ccc(NC(=O)CC2Nc3cc(C)c(C)cc3NC2=O)cc1C (configuration not stated)	13%
73	NC1=NC(=O)C(CC(=O)Nc2ccc(C(F)(F)F)cc2)S1 (configuration not stated)	-2%
74	COc1ccc(NC(=O)CCCN2C(=O)/C(=C\c3ccco3)SC2=S)cc1	3.3µg/mL*
75	Cc1ccc(-n2ncc3c(NCc4cccnc4)ncnc32)cc1C	6µg/mL*

The list goes on.
item	Structure	Mtb growth
76	COC(=O)c1sc2ncn(CC(=O)N3CCCC3)c(=O)c2c1C	-9%
77	Cc1ccc(S(=O)(=O)NNC(=O)CC2CCS(=O)(=O)C2)cc1 (configuration not stated)	-7%
78	COc1cc2c(=O)c(C(=O)c3ccc(C)c(C)c3)cn(Cc3ccccc3)c2cc1OC	5%
79	Cc1ccc2[nH]c(=O)c(C3=NN(C(=O)c4ccco4)C(c4ccco4)C3)c(-c3ccccc3)c2c1 (configuration not stated)	15µg/mL*
80	O=C(CCn1c(=O)[nH]c2ccsc2c1=O)Nc1nccs1	6%
81	CCc1ccc(-c2cc(C(=O)N/N=C(\C)c3ccncc3)[nH]n2)cc1	74%
82	CC(=O)N1CCc2c(sc(NC(=O)c3cc4ccccc4oc3=O)c2-c2nc3ccccc3s2)C1	-2%
83	CCc1nnsc1C(=O)Nc1ccc(S(N)(=O)=O)cc1	-5%
84	COc1ccc2cc(C(N)=O)c(=Nc3ccc(C)cc3)oc2c1	-14%
85	O=C(c1ccco1)N(Cc1ccccn1)c1nc2c(F)cc(F)cc2s1	-4%
86	CCOc1ccc(C(=O)c2cn(Cc3cccc(OC)c3)c3c(F)cc(F)cc3c2=O)cc1	1%
87	Cn1c(=O)[nH]c(=O)c2c1nc(NCCN1CCOCC1)n2CCCOc1ccccc1	-6%
88	CC(C)(C)c1ccc(-n2c(=O)[nH]c3c(C(N)=O)nc(-c4ccco4)nc32)cc1	-1%
89	Cc1ccc(N2CC(NC(=O)c3ccccc3Cl)CC2=O)cc1 (configuration not stated)	22%
90	N#Cc1c(N)sc(=S)c2c1CCC2	4%

Later entries:
item	Structure	Mtb growth
91	COc1ccc(-c2nc(C(N)=O)c3[nH]c(=O)n(-c4ccc(C)c(C)c4)c3n2)cc1	-6%
92	COC(=O)c1ccccc1-c1ccc(/C=C2\SC(=O)NC2=O)o1	26%
93	CCCN(CCC)S(=O)(=O)c1ccc(C(=O)Nc2cc([N+](=O)[O-])ccc2OC)cc1	-2%
94	COCCn1c(=NC(=O)c2ccno2)sc2cc(S(C)(=O)=O)ccc21	1%
95	Cc1ccc(NC(=O)CN2N=NC3C(=O)N(c4ccc(F)c(Cl)c4)C(=O)C32)cc1C (configuration not stated)	-3%
96	Cc1cccc(NC(=O)NC2CC(=O)N(c3ccc4c(c3)OCCO4)C2)n1 (configuration not stated)	6%
97	COc1ccccc1-n1c(SCC(=O)Nc2ccccc2)nc2c(c1=O)SCC2	8%
98	COC(=O)c1ccc(C(=O)Nc2sc3c(c2C(N)=O)CCN(Cc2ccccc2)C3)cc1	0%
99	COc1ccc(-c2nnc3ccc(SCC(=O)Nc4cc(C)cc(C)c4)nn23)cc1	-2%
100	Cn1c(=O)[nH]c(=O)c2c1nc(N)n2CC(O)COc1ccc(Cl)cc1 (configuration not stated)	-2%
101	COc1cccc(C=Nc2cccc3c(=O)[nH][nH]c(=O)c23)c1O	-12%
102	COc1ccc(OC)c2[nH]c(=O)c(CCNC(=O)c3c(-c4ccccc4Cl)noc3C)cc12	3%
103	CCN(CC)S(=O)(=O)c1ccc(C(=O)Nc2c(C(=O)Nc3cccc(OC)c3)oc3ccccc23)cc1	15%
104	CCCCC(CC)CNc1nc2c(c(=O)[nH]c(=O)n2C)n1CC(O)COc1ccccc1 (configuration not stated)	-5%
105	C=CCc1cccc2cc(C(N)=O)c(=NCc3ccccc3)oc12	11%

Rewritten field by field: two of the compounds above.
(6) CNC(=O)NC1CC(=O)N(c2ccc(OC)cc2)C1 (configuration not stated)
  Mtb growth: -3%
(7) COc1ccc(NC(=O)CSc2nc(N)c(NC(=O)c3ccccc3F)c(=O)[nH]2)cc1
  Mtb growth: -1%

The list continues:
item	Structure	Mtb growth
106	Cc1cc(=O)[nH]c2ccc(S(=O)(=O)Nc3ccc(C(=O)O)cc3)cc12	-17%
107	CCOc1ccc(-n2c(=O)[nH]c3c(C(N)=O)nc(-c4cccc(F)c4)nc32)cc1	-11%
108	O=C(COc1ccc(Cl)cc1Cl)Nc1nnc(-c2cccc([N+](=O)[O-])c2)s1	24%
109	c1ccc(CCCNc2ncnc3nc[nH]c23)cc1	12%
110	COCC(=O)Nc1c(C(=O)Nc2cc(OC)ccc2OC)oc2ccccc12	-2%
111	O=C(O)CN1C(=O)/C(=C/c2ccc(-c3ccccc3F)o2)SC1=S	-13%
112	CCOC(=O)c1nn(-c2ccccc2)c(=O)c2c(NC(=O)c3ccc(Br)cc3)scc12	-7%
113	O=C(NNc1ncnc2c1cnn2-c1cccc(Cl)c1)c1cccc(Cl)c1	85%
114	Cc1ccc(-c2n[nH]c(=O)c3ccccc23)cc1	11%
115	COC(=O)C1=C(C)OC(N)=C(C#N)C1c1ccccc1 (configuration not stated)	2%
116	CCOC(=O)c1ccc(NS(=O)(=O)c2c[nH]c(=O)[nH]c2=O)cc1	-25%
117	Cc1nnc(NC(=O)CSc2nc(-c3ccccc3)nc3c2c(=O)n(C)c(=O)n3C)s1	-2%

Compounds above with a tert-butyl group (2):
item	Structure	Mtb growth
10	COc1ccc(NC(=O)c2oc3ccccc3c2NC(=O)C(C)(C)C)cc1OC	83%
88	CC(C)(C)c1ccc(-n2c(=O)[nH]c3c(C(N)=O)nc(-c4ccco4)nc32)cc1	-1%

Some of the compounds tested; rates above refer to the full screens.
